Assay outcomes from PubChem BioAssay.
ClpP mod: qHTS Assay for Activators of ClpP; ATP-dependent Clp protease proteolytic subunit (Bacillus subtilis (strain 168)), P80244; purified B. subtilis ClpP, FRET peptide cleavage, 20 min; Potency, µM (series often up to 57.5 µM), inactives show at the top dose activity change, negative = active; 340,000 tested, 1.9% active; AID 651965, 2013; active = well fitted falling curve with a large enough effect; inconclusive = small, poorly fitted or top-dose-only effect; inactive = no such curve, though single readings can be large or run the other way; note: potency is the fitted concentration of half-maximal effect; the source files actives as falling curves though it sought activators and does not explain the sign; nearly all actives have a fitted effect of over 65% in size; many hits overshoot -100%
Target sequence (P80244 whole entry, looked up): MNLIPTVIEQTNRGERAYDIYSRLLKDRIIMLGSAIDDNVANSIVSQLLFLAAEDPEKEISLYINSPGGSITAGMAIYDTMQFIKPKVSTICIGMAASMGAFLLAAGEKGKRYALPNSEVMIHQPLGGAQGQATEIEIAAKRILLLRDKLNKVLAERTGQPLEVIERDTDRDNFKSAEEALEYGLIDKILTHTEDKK
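Buffer: 100 mM Tris/HCl pH8, 100 mM KCl, 0.05% low protease BSA, 2.5% glycerol, 0.01% Tween-20. ClpP 10 microg/mL final; 20 min RT; delta FRET normalized to ADEP and DMSO controls.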
gsp ag: gsp mutant agonism; Potency, µM (highest dose often 76.9 µM), inactives show top-dose activation (cAMP increase), actives largely listed as activators; gsp mutant cells, cAMP HTRF, 30 min; control for the full effect not named in the record; 340,000 tested, 0.13% active; active = well fitted activation curve with a large enough effect; inconclusive = small, poorly fitted or top-dose-only effect, or another doubt; inactive = no such curve, though single readings can be large or run the other way; cell line not stated here;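 note: phosphodiesterase inhibitor Ro 20-1724 added with compounds to block cAMP breakdown; potency is the fitted concentration of half-maximal effect; nearly all actives have a fitted effect of over 60% in size; about a fifth of the inactives were tested at one dose only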
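Cells in DMEM/10% FBS with G418 were pretreated with compounds in DMSO plus […] (300 uM stock) for 30 min at 37C. cAMP was measured by HTRF (cAMP-d2 plus anti-cAMP antibody-K) after 30 min at room temperature.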
TRPML1 inh: human mucolipin-1 channel inhibition; Q9GZU1; TRPML1-inducible cells, Ca2+ dye fluorescence, FDSS; active compounds read low; inhibition of EC80 agonist-evoked calcium signal; activity change, negative = inhibition, % (test concentration not listed); 390,000 tested, 0.02% active; AID 624415; in the data active means activity change below about -50%; inconclusive means about -30% to -50%; inactive means above about -30%;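 note: stimulus is agonist 54-4 at its EC80 concentration; % is set by controls: 0 for no effect and ±100 for the full control effect; compound concentration not given in the record; the text of the record puts the active cut at -80%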
Target sequence (Q9GZU1 whole entry, looked up): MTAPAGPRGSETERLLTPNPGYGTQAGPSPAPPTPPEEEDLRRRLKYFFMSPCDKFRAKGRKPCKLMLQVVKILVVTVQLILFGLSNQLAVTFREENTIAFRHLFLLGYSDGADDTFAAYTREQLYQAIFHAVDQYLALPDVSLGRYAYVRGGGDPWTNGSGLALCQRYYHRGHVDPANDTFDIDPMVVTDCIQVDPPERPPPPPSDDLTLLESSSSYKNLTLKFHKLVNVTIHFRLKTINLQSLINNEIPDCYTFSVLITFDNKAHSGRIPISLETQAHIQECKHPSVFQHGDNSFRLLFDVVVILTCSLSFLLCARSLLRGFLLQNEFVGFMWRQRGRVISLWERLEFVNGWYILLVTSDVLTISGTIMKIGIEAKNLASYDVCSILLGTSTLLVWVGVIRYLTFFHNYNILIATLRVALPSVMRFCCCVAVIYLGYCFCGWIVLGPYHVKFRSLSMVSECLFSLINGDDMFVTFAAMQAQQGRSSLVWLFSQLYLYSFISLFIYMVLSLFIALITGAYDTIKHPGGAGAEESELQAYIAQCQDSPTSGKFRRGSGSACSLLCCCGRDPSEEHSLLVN
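TRPML1-DL cells, Tet-induced overnight (~16 h, 37 °C) at 1,500 cells/well, were loaded with Ca8 no-wash dye plus quencher for 45-90 min at room temperature. Compounds were pinned during FDSS kinetic reading; agonist 54-4 at EC80 (4 uM final) then added.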
TRPML1 agonist: activates the human TRPML1 channel | AID 624414 | activation, % (no concentration beside the values) | TRPML1-expressing cells, Ca2+ dye fluorescence, FDSS; host cell line not named in the record; reference of the full effect not given here | 410,000 tested, 0.12% active | Q9GZU1; in the data active = activation above about 50%; inconclusive = about 30% to 50%; inactive = below about 30%; note: 0% is about no effect; the text of the record puts the active cut at 80%
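Cells: TRPML1-DL, 1X Tet inducer, ~16 h at 37 degrees C/5% CO2. Dye: ABD Ca8 no-wash + quencher, 45-90 min RT. Read: 10 s baseline, compound add, 110 s agonist phase; 54-4 EC80 (4uM final), 110 s antagonist phase.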
gsp antagonist: antagonizes gsp, the McCune-Albright syndrome mutation | gsp-mutant cells, cAMP HTRF, 30 min; control for the full effect not named in the record | AID 624288 | Potency, µM (top dose mostly 76.9 µM), for inactives: at the highest dose activity change, negative = inhibition, most hits filed as inhibitors | 340,000 tested, 0.4% active; active = falling curve of any shape with a large fitted effect; inconclusive = falling curve, mostly with a smaller effect; inactive = flat or rising curve; cell line not stated here;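 note: intracellular cAMP measured with PDE inhibitor Ro 20-1724 present during compound exposure; potency is the fitted concentration of half-maximal effect; % is set by controls: 0 for no effect and ±100 for the full control effect; nearly all actives have a fitted effect of over 65% in size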
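HTRF cAMP measurement after 30 min RT detection following 30 min, 37C compound treatment alongside […] (added as 300 uM solution) in G418-selected cells seeded at 2000/well and grown 16–24 h.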
Menin-MLL FL inh: displaces fluorescein MLL peptide from human menin; 290,000 tested, under 10 active; Fluorescence polarization, fluorescein-MLL peptide displacement from menin; AID 1766; FP activity change, % at 61.4 µM; inconclusive = falling polarisation curve, or a change in total fluorescence; inactive = total fluorescence flat and polarisation flat or rising; no compound was filed as active; the % refers to the polarisation; negative = inhibition;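 note: % of control where 0% means no effect; inhibitors lower the polarisation; unlabelled MLL peptide was the positive control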
Starred values were filed as active, the others as inactive; ? = inconclusive; . = not tested or not shown; [ ] = remark or other dose.

SMILES,Menin-MLL FL inh,TRPML1 agonist,gsp antagonist,ClpP mod,TRPML1 inh,gsp ag
COC(=O)C1=C(C)NC(C)=C(C(=O)OC)C1C(=O)OCc1nc2cc(C(=O)OC)ccc2c(=O)[nH]1,.,0.5,-9%,?,1,-50%[inhibitor]
CC(=O)N(Cc1ccccc1)C(CC(=O)NCc1ccccc1)C(=O)O (configuration not stated),.,0.7,5%,.,-14,9%
O=C(Nc1nc(-c2cc(Cl)sc2Cl)cs1)c1cccs1,4.0,0.0,-11%,-23%,64,-32%[inhibitor]
Nc1ccccc1C(=O)NNc1c2ccccc2nc2ccccc12,0.7,-0.9,?,25%,-11,4%
Cc1cccc2cc(COC(=O)c3ccccn3)c(=O)[nH]c12,0.5,-1.0,-1%,-6.1%,-8,-3%
COc1ccc(/C=c2\s/c(=C(/C#N)C(=O)NCc3ccco3)n(-c3ccccc3)c2=O)cc1,0.5,1.5,7%,.,-4,2%[15.4 µM]
COc1ccc(-c2ccc(SCC(=O)NCC3CCCO3)nn2)cc1OC (configuration not stated),3.5,-0.9,18%,1.1%,19,-8%[15.4 µM]
CC(=O)N1c2ccccc2NC2=C(C(=O)CCC2)C1c1ccco1 (configuration not stated),-7.4,0.3,3%,.,-11,8%[15.4 µM]
Cc1cc(-c2nnc(SCC(=O)Nc3ccc(S(N)(=O)=O)cc3)n2N)n[nH]1,.,-0.3,13%,-1.3%,-10,-6%
Cc1ccc(N(Cc2ccccc2)C(=O)c2cccc(S(=O)(=O)N3CC(C)OC(C)C3)c2)cc1 (configuration not stated),.,2.9,-17%,.,54,-67%[15.4 µM]
Cc1nc(C(=O)Nc2cccc(Cl)c2)nn1-c1cc(OC(C)C)c(Cl)cc1Cl,0.2,-0.3,-1%,-28%,-2,-38%[inhibitor]
CCC(=O)NCc1ccc(-c2nc3ncccc3o2)cc1,0.6,0.8,-5%,3.9%,13,-1%
Cc1cccc(Cn2c(Sc3nc(C)cs3)nc3c2c(=O)[nH]c(=O)n3C)c1,-0.5,-1.4,-19%,-0.1%,-2,-5%
COc1ccc2c(c1)c(=O)oc1cc(OCC(=O)N3CCc4ccccc4C3)ccc12,-0.1,2.7,-8%,4.5µM*,9,20%
CCOc1ccc(N(CC(=O)Nc2ccc(Br)cc2)S(C)(=O)=O)cc1,20,-1.0,-19%,-2.2%,-14,-8%

Individual results from the entries so far:
`Cc1nc(C(=O)Nc2cccc(Cl)c2)nn1-c1cc(OC(C)C)c(Cl)cc1Cl` @ TRPML1 agonist: -0.3
`O=C(Nc1nc(-c2cc(Cl)sc2Cl)cs1)c1cccs1` @ gsp antagonist: -11%
`CCC(=O)NCc1ccc(-c2nc3ncccc3o2)cc1` @ TRPML1 inh: 13
`Nc1ccccc1C(=O)NNc1c2ccccc2nc2ccccc12` @ gsp ag: 4%

The listing continues:
SMILES,Menin-MLL FL inh,TRPML1 agonist,gsp antagonist,ClpP mod,TRPML1 inh,gsp ag
Cn1c(=O)n(C)c2cc(S(=O)(=O)Nc3ccccc3O)ccc21,2.3,-0.8,-21%,1.0%,1,-3%
COc1ccc(C(=O)N2CCOCC2)cc1S(=O)(=O)N1CCCc2ccccc21,2.3,0.4,-11%,-1.9%,26,?
NC(=O)CSc1nc2ccccc2c(=O)n1-c1ccccc1,-2.9,0.4,-9%,0.3%,21,16%[15.4 µM]
COc1ccc(-c2nc3c(C)cc(Br)cn3c2CC(C)(C)C)cc1OC,.,0.0,.,-7.4%,17,.
COc1cccc(OCC(=O)O/N=C(\N)c2ccc(OC)c(OC)c2)c1,4.7,3.3,-14%,-1.4%,-2,?
N#CC1(Nc2ccccc2)C(=O)Nc2ccccc21 (configuration not stated),-0.7,-0.2,-4%,3.4%,7,-2%
Cc1c(CCOC(=O)c2ccccc2)sc[n+]1Cc1ccccc1,-0.4,-0.1,10%,-2.3%,5,20%
C=CCNC(=S)NNC(=O)C(CCCC)CC(C)(C)O (configuration not stated),0.8,-1.0,1%,0.9%,-3,-23%
Cc1nc(N)[nH]c(=O)c1Oc1cccc(C(F)(F)F)c1,-2.9,0.1,5%,.,-1,-16%[15.4 µM]
CCn1c(C(=O)Nc2c(C)cccc2C)cc2sc(Cl)cc21,.,-1.1,.,-1.9%,11,.
O=S(=O)(Nc1ccc(S(=O)(=O)Nc2ncccn2)cc1)c1ccccc1,.,0.0,-1%,.,3,-2%[15.4 µM]
COc1ccccc1CCC(=O)OCC(=O)NCc1ccc(OC)c(OC)c1,.,0.7,4%,.,1,14%
Cn1c(=O)c2c(nc(NCc3ccco3)n2CCc2ccccc2)n(C)c1=O,0.8,-1.6,-14%,-0.6%,-3,?
CC(=O)Nc1ccc(S(=O)(=O)Nc2nccs2)cc1,-1.0,0.2,-1%,.,-7,-4%
COc1ccc(/C=N/NC(=O)c2ccc3nc[nH]c3c2)c(OC)c1,.,0.6,-1%,-29%,-15,-17%

Overlap with the part before: two compounds; new compounds follow.
SMILES,Menin-MLL FL inh,TRPML1 agonist,gsp antagonist,ClpP mod,TRPML1 inh,gsp ag
CC(=O)Nc1ccc(S(=O)(=O)Nc2nccs2)cc1,-1.0,0.2,-1%,.,-7,-4%
COc1ccc(/C=N/NC(=O)c2ccc3nc[nH]c3c2)c(OC)c1,.,0.6,-1%,-29%,-15,-17%
Fc1cccc(CN2CCN(C(=S)NCCc3ccccc3)CC2)c1,-6.7,0.8,-7%,.,-9,-1%[15.4 µM]
O=C(/C=C/c1ccc(Cl)c([N+](=O)[O-])c1)Nc1ccc(N2CCCC2)c(Cl)c1,2.5,0.4,?,.,24,-5%[15.4 µM]
O=C(NCc1cccs1)C(=O)c1c[nH]c2ccccc12,-1.7,0.3,-12%,2.3%,5,?
Cc1cc(C(=O)NNc2c(Cl)cccc2Cl)n(C(C)(C)C)n1,-0.2,1.6,2%,.,12,-1%
O=C(O)c1cccc(NC(=S)N/N=C/c2ccccn2)c1,0.5,-0.5,2%,-1.3%,-19,?
O=S(=O)(Cc1ccccc1Cl)NCc1ccccc1,2.7,0.9,-2%,.,-11,17%[15.4 µM]
O=C(COc1cccnc1[N+](=O)[O-])Nc1ccc(F)cc1,.,-1.3,-2%,.,7,-4%
O=S(=O)(c1cc(Cl)ccc1Cl)N1CCN(Cc2ccc3c(c2)OCO3)CC1,0.1,1.5,-2%,0.6%,-12,-29%
O=C(Cn1c(=O)n(Cc2ccco2)c(=O)c2c3c(sc21)CCCCC3)Nc1ccccc1,12,-0.2,4%,-18%,-6,-3%
CC1CCN(C(=O)Cn2nnc(-c3ccc(C(C)C)cc3)n2)CC1,-1.4,.,-17%,0.9%,.,-29%
O=C(O)c1ccnc(SCC(=O)c2ccccc2)c1,3.4,-0.1,-5%,1.1%,-10,-31%[inhibitor]
O=C(CCl)Nc1ccc(N2CCCCCC2)cc1,-4.3,0.6,-11%,.,-27,-2%
O=C(O)CCCC(=O)N1CCN(C(c2ccccc2)c2ccccc2)CC1,-6.5,1.2,-10%,1.5%,16,3%
Cc1ccc(NC(=O)N2CCN(C/C=C/c3ccccc3)CC2)cc1,2.9,0.6,-6%,-0.6%,0,30%
CN(Cc1ccccc1)c1nc2c(c(=O)[nH]c(=O)n2C)n1Cc1ccccc1,3.6,0.2,13%,1.4%,15,-4%

Sorted by the number under gsp ag (falling): some entries from above.
SMILES	gsp ag
O=C(O)CCCC(=O)N1CCN(C(c2ccccc2)c2ccccc2)CC1	3%
CN(Cc1ccccc1)c1nc2c(c(=O)[nH]c(=O)n2C)n1Cc1ccccc1	-4%
CC1CCN(C(=O)Cn2nnc(-c3ccc(C(C)C)cc3)n2)CC1	-29%

Structural class, the compounds so far containing fluorine
SMILES,Menin-MLL FL inh,TRPML1 agonist,gsp antagonist,ClpP mod,TRPML1 inh,gsp ag
Cc1nc(N)[nH]c(=O)c1Oc1cccc(C(F)(F)F)c1,-2.9,0.1,5%,.,-1,-16%[15.4 µM]
Fc1cccc(CN2CCN(C(=S)NCCc3ccccc3)CC2)c1,-6.7,0.8,-7%,.,-9,-1%[15.4 µM]
O=C(COc1cccnc1[N+](=O)[O-])Nc1ccc(F)cc1,.,-1.3,-2%,.,7,-4%

Continued.
SMILES,Menin-MLL FL inh,TRPML1 agonist,gsp antagonist,ClpP mod,TRPML1 inh,gsp ag
CC#CCCCC(=O)Nc1cccc(C(=O)O)c1,1.7,0.5,6%,0.8%,21,-21%
O=[N+]([O-])c1cc([N+](=O)[O-])c(Oc2ccccc2F)cc1NN1CCCCC1,-9.0,0.5,-8%,0.2%,52,-34%[inhibitor]
S=c1[nH]nc(-c2ccc(Cl)cc2Cl)n1-c1ccc2c(c1)OCCO2,34[activator],0.1,-26%,-12%,-4,1%[15.4 µM]
Cc1nc(CC(=O)Nc2ccc(N(C)C)cc2)cs1,.,1.4,.,-0.9%,-5,.
Cc1ccc(-n2c(SCC(=O)Nc3cccc(Cl)c3)nc3n[nH]c(C)c3c2=N)cc1,.,-0.2,.,4.3%,4,.
COc1ccc(-c2csc(Nc3ccccc3)n2)cc1,0.3,1.9,-21%,.,-2,0%[15.4 µM]
CCOC(=O)c1ccc(N2CCOCC2)c(NC(=O)c2c(-c3ccccc3)noc2C)c1,-3.7,1.2,17%,.,-5,0%
COc1ccc(Nc2cc(C)nc3nc(C)nn23)c(OC)c1,1.3,0.8,?,-11%,-29,4%
O=C(/C=N/O)NCc1cccnc1,3.9,-0.5,4%,0.1%,0,15%
Cc1nc2nc(SCC(=O)N3CCOCC3)nn2c(C)c1Cc1ccccc1,3.2,-0.7,-4%,-6.2%,-1,12%
Cc1cc(C(=O)NCCCC(=O)O)c(C)o1,-1.8,-0.3,-4%,0.4%,9,-26%
Cc1cccc(NC(=S)NC(=O)c2cc(-c3ccccc3)nc3ccccc23)c1,-0.6,0.5,-10%,-0.1%,-2,10%
O=C(/C=C/c1ccccc1Cl)c1ccccc(=O)c1O,?,0.1,4%,-2.6%,-2,-58%[inhibitor]
C[C@@]12C(=O)Nc3cc(F)ccc3C(=O)N1[C@H]1c3ccccc3OC[C@@H]1[C@@H]2c1ccccc1,.,-0.1,-17%,-10%,-10,.

Rows are unselected (roughly 2.1% active in at least one column).
